VACV mCherry inh – vaccinia inhibition (mCherry reporter). Vaccinia virus mCherry reporter infection, fluorescence; about a quarter of the inactives have no number. Potency, µM (doses to about 36.5 µM), for the others: top-dose activity change, negative = inhibition, usual class: inhibitors. 310,000 compounds, 0.63% hits; active = well fitted inhibition curve with a large enough effect; inconclusive = small, poorly fitted or top-dose-only effect; inactive = no such curve, though single readings can be large or run the other way; tested in A549 cells; note: nearly all actives have a fitted effect of over 35% in size; inactives centre near -10
VACV Venus inh – inhibitors of vaccinia virus (Venus reporter); 330,000 compounds, 0.46% hits; Potency, µM (doses to about 36.5 µM), inactives show at the top dose activity change, negative = inhibition, hits mostly inhibitors; Vaccinia virus Venus reporter expression, fluorescence; active means well fitted inhibition curve with a large enough effect; inconclusive means small, poorly fitted or top-dose-only effect; inactive means no such curve, though single readings can be large or run the other way; tested in A549 cells; note: nearly all actives have a fitted effect of over 30% in size; inactives centre near -10
The depositor's hits bear a star; i = inactive; ? = inconclusive; nt = no result given; & = joins results of further samples; [ ] = another dose, or the depositor's remark. % is set by controls: 0 for no effect and ±100 for the full control effect; potency is the fitted concentration of half-maximal effect.

Values in the order: VACV Venus inh	VACV mCherry inh
COc1ccc(-n2cnc3c(sc4nc(N5CCOCC5)c5c(c43)CCCC5)c2=O)cc1
 : 2%	i
Cc1ccc(NC(=O)NC2OC(=O)c3ccccc32)cc1 (stereo not given)
 : -5%	i
COc1cc2c(cc1NC(=O)c1ccccc1C)n(C)c(=O)n2C
 : 9%	12%
O=C(O)c1cc2cc(Cc3cccnc3)ccc2o1
 : -7%	-5%
CCCCCCCCCCOC(=O)CCN1CC1
 : 1%	-9%
CCN(c1ccccc1)S(=O)(=O)c1nnc(NC(=O)COc2ccc(OC)cc2)s1
 : -5%	5%
CC1(C)Cc2ccccc2C(NNC(=O)c2ccccn2)=N1
 : -25%	nt
CC(=NNC(=O)Cn1ccc(C(F)(F)F)n1)c1ccc(-n2ccnc2)cc1
 : -12%	-2%
Cc1cc(C)cc(NC(=O)Cn2nnc(-c3ccccc3F)n2)c1
 : -8%	-15%
CCCCOC(=O)c1ccc(NC(C)=O)cc1
 : 7%	nt
Cc1cc(C(=O)CSc2nnc(N)s2)c(C)n1Cc1cccs1
 : -25%	-15%
O=C1CCCC2=C1C(c1ccc(Cl)cc1)C1C(=O)c3ccccc3C1=N2 (stereo not given)
 : ?	?
NS(=O)(=O)c1ccc(CNC(=O)c2scc3c2CCCC3)cc1
 : -3%	-16%
Cc1ccc(C)c(S(=O)(=O)N2CCN(C(=O)c3cc(S(=O)(=O)NCc4ccccc4)ccc3C)CC2)c1
 : -29%	-18%
CCOc1ccc(-c2n[nH]c(C)c2-c2ccccc2OC)c(O)c1
 : ?	?
CCOC(=O)C1=CC[C@@H](c2ccccc2)N(S(=O)(=O)c2ccc(C)cc2)[C@H]1C=C(C)C
 : -7%	33%[activator]
O=c1cc(CN2CCN(S(=O)(=O)c3ccccc3)CC2)nc2sccn12
 : -6%	i
CCOC(=O)c1ccc(NC(=O)NNS(=O)(=O)c2cc(OC)ccc2OC)cc1
 : -6%	-10%
O=C1C(c2ccccc2)SC(=Nc2ccccc2)N1S(=O)(=O)c1ccccc1 (stereo not given)
 : -19%	nt
COc1ccc(C(=O)N2CCOCC2)cc1S(=O)(=O)N1CCC(C)CC1
 : 4%	-15%

Next section:
Values in the order: VACV Venus inh	VACV mCherry inh
CCOc1ccccc1Nc1nc(N)nc(Cl)c1CC
 : -11%	-5%
CC1Cc2ccccc2N1C(=O)CCn1c(=O)sc2ccccc21 (stereo not given)
 : -16%	i
Cc1nnc(SCC(=O)NC2(C#N)CCCCC2)n1N
 : 6%	i
Cc1ccc2nc(CCl)[n+]([O-])c(-c3ccccc3)c2c1
 : -15%	-15%
O=C(NCCCN1CCN(c2ccccc2F)CC1)C1CCCN(S(=O)(=O)c2cnc[nH]2)C1 (stereo not given)
 : 3%	32%[activator]
COc1cccc(CC(=O)OCC(=O)NC2CCCC2)c1
 : -8%	-14%
Cc1cc(=O)n2[nH]c(N)c(N=Nc3ccccc3F)c2n1
 : -24%	-12%
Cc1ccc(CNC(=O)c2cc(NS(=O)(=O)c3ccc(C)cc3)ccn2)cc1
 : 4%	16%
CN(CC(=O)Nc1ccc(F)c(F)c1F)C(=O)c1ccc(-n2cncn2)c([N+](=O)[O-])c1
 : 1%	-9%
CC(C)CC(=O)N1CCN(S(=O)(=O)c2ccc(Cl)cc2)CC1
 : -6%	i
COC(=O)c1ccc(Cn2nnc3c(=O)[nH]c(C4CCCN(S(=O)(=O)c5cccc(Cl)c5)C4)nc32)cc1 (stereo not given)
 : -5%	-11%
CCCn1c2ccc(C)cc2c2nnc(SCCN3CCOCC3)nc21
 : -19%	?
CC(C)Cn1c(/C=C/c2ccc(F)cc2)nc2ccccc21
 : -19%	-16%
CCOC(=O)C(NC(=O)c1ccccc1)=C(C)C
 : -2%	-14%
COc1ccc(/C=C/C(=O)N2CCc3c(cnc(C)c3CNC(=O)c3ccsc3)C2)cc1OC
 : -8%	-11%
CN(C)C(=O)CSc1nc2ccccc2n1Cc1ccccc1
 : -3%	-10%
c1ccc(-c2cc(-c3ccccc3)on2)cc1
 : -1%	-13%
COc1cccc(-c2nc(SCC(=O)NCC3CCCO3)c(-c3ccc(C)cc3)[nH]2)c1 (stereo not given)
 : -9%	-12%
Cn1c(NC(=O)C[n+]2cc(-c3ccccc3)n3c2CCC3)cc(=O)n(C)c1=O
 : 0%	-14%
Cc1ccccc1-c1ccc(/C=C2/SC(N3CCOCC3)=NC2=O)o1
 : -26%	-24%

2 entries from above, reformatted.
> CC(C)Cn1c(/C=C/c2ccc(F)cc2)nc2ccccc21
  VACV Venus inh: -19%	VACV mCherry inh: -16%
> CCOC(=O)C(NC(=O)c1ccccc1)=C(C)C
  VACV Venus inh: -2%	VACV mCherry inh: -14%

Later entries:
Values in the order: VACV Venus inh	VACV mCherry inh
COc1cc(NC(=O)c2ccccc2F)ccc1NC(=O)c1ccccc1Cl
 : -25%	-2%
COCC(=O)Nc1cc(C(=O)N[C@H]2CCCCNC2=O)c2c(c1)nc(-c1ccncc1)n2C
 : 0%	-4%
Cc1ccc(C(=O)NC2(C(F)(F)F)N=C(c3ccccc3)N(C3CCCCC3)C2=O)cc1 (stereo not given)
 : -1%	-9%
O=C(c1ccncc1)N1CCN(C2CCCCC2)CC1
 : 0%	i
COc1cc2sc3ccc(C#Cc4ccccn4)cc3c(=O)c2cc1OC
 : ?	?
O=C1C2CC=CCC2C(=O)N1c1n[nH]c(Cc2ccccc2)n1 (stereo not given)
 : -8%	i
CC(C)(C)c1csc(NC(=O)c2cccs2)n1
 : ?	?
O=C(Nc1ccc2oc(=O)ccc2c1)c1cccnc1Cl
 : -8%	-19%
O=C(Nc1ccc(N2CCOCC2)nc1N1CCOCC1)c1cccc(C(F)(F)F)c1
 : -18%	-6%
Cn1cccc1C(C#N)c1ncc(C(F)(F)F)cc1Cl (stereo not given)
 : -4%	i
CC1(C(=O)Nc2ccc3ccccc3c2)CCC(=O)N1CCCn1ccnc1 (stereo not given)
 : -9%	i
O=C1[C@H]2[C@@H](c3ccccc3)N[C@]3(CCCN(Cc4ccc(Cl)cc4)C3=O)[C@H]2C(=O)N1Cc1ccccc1
 : ?	-22%
CCOC(=O)c1[nH]c2ccc(OCC)cc2c1NC(=O)CN1CCCC(C)C1 (stereo not given)
 : -21%	nt
Cc1ccc2oc(C(=O)NCC(c3ccc(Cl)cc3)N3CCOCC3)c(C)c2c1 (stereo not given)
 : -13%	-15%
COc1ccc(Cc2nc(-c3ccc(NC(=O)c4cccnc4)cc3)no2)cc1
 : -11%	nt
COc1ccc(CN2CCN(C(=O)c3ccco3)CC2)cc1OC
 : 0%	6%
Cc1cccc(CN2C(=O)c3ccccc3Sc3ccc(C(=O)NCc4cccs4)cc32)c1
 : -5%	-13%
C=C(C)CSc1nc(C)c(Cc2ccccc2)c(=O)[nH]1
 : -11%	-20%
O=[N+]([O-])c1cccc(S(=O)(=O)c2cccc([N+](=O)[O-])c2)c1
 : 0%	1%
Cc1cc(NS(=O)(=O)c2ccc(NC(=O)CSc3nnc(-c4ccco4)n3Cc3ccco3)cc2)nc(C)n1
 : -1%	-12%

More compounds:
Values in the order: VACV Venus inh	VACV mCherry inh
CC(=O)Nc1ccccc1OC(C)C(=O)NC(C)c1ccc(F)cc1 (stereo not given)
 : -6%	-6%
O=C(CSc1ccc(Cl)cc1)NNC(=O)c1ccncc1
 : -7%	0%
CCOC(=O)Cc1nnc(NC(=O)CSc2nncn2C)s1
 : -12%	-4%
O=C(CC1C(=O)NCCN1C1CCCC1)NCc1cccc(OC(F)(F)F)c1 (stereo not given)
 : -6%	i
COc1ccccc1NC(=O)c1cnc(SCC(=O)N2CCOCC2)n(C)c1=O
 : 0%	-7%
COCCN(CCOC)C(=O)CN1C(=O)NC(Cc2c[nH]c3ccccc23)C1=O (stereo not given)
 : -4%	-11%
O=c1[nH]c(=O)c2nc(Br)n(C3OC(CO)C(O)C3O)c2[nH]1 (stereo not given)
 : -14%	-13%
CCS(=O)(=O)NCCCc1ccccc1
 : -6%	i
Nc1nc(NCc2ccc(Cl)cc2)nc(NCCO)c1[N+](=O)[O-]
 : -24%[7.34 µM]	-10%[7.34 µM]
O=C(CCc1nc2cccnc2n1Cc1cccs1)Nc1cccc(C(F)(F)F)c1
 : -11%	-12%
Cc1cc(/C=C2/C(=O)N(C)C(=S)N2C)ccc1N1CCCC1
 : 225%[activator]	i
CCn1c(N)c(Br)c(=O)[nH]c1=O
 : -7%	i
O=c1oc2ccccc2c2[nH]ccc12
 : -6%	0%
C=CCSc1n[nH]c(=O)n1-c1cccc(C(F)(F)F)c1
 : 1%	-8%
CCCC(=O)Nc1cc(C)cn(Cc2c(F)cccc2Cl)c1=O
 : -23%	i
O=C(/C=C/c1ccc(O)c(O)c1)OC1C(O)CC(OC(=O)/C=C/c2ccc(O)c(O)c2)(C(=O)O)CC1O (stereo not given)
 : 0%	-8%
COc1cccc(N2[C@@H](CC(C)=O)c3ccc(/C=C/C(C)=O)cc3S2(=O)=O)c1
 : -21%&-7%	-11%&-6%
COc1ccc(CCN2C(=O)c3[nH]nc(-c4ccccc4O)c3C2c2ccccc2)cc1 (stereo not given)
 : -28%	-29%
CCOC(=O)C1CCCN(C(=O)c2ccc(-n3ccc4ccccc43)s2)C1 (stereo not given)
 : -7%	-10%
C[C@H]1COc2cc(N3CC[C@H](O)C3)ccc2S(=O)(=O)N1
 : -3%	1%

The list goes on:
Values in the order: VACV Venus inh	VACV mCherry inh
Cc1cc(C(=O)COC(=O)c2ccc3c(c2)OCO3)c(C)n1CC1CCCO1 (stereo not given)
 : -2%	1%
O=[N+]([O-])c1cccc2nc3ccccc3c(NCCCn3ccnc3[N+](=O)[O-])c12
 : 1.4µM*	2.8µM*
O=C1N=C(N2CCOCC2)S/C1=C\c1ccc(-c2ccccc2Cl)o1
 : 0%	-3%
CN(C)S(=O)(=O)c1cccc(C(=O)Nc2cc(Cl)cc(Cl)c2)c1
 : -16%	-23%
Fc1ccc2nc(Nc3nc4cc5c(cc4s3)OCCO5)sc2c1
 : -25%	?
CC1CCC(=O)N(CCSc2ccccc2)CC1 (stereo not given)
 : -3%&-17%	i
COc1cc(S(=O)(=O)N2CC(=O)Nc3ccccc32)ccc1NC(C)=O
 : 6%	-13%
COC(=O)c1c(C)[nH]c(C(=O)OCC(=O)N2c3ccccc3NC(=O)C2(C)C)c1C
 : -13%	15%
CCc1ccc2c(c1)-c1ccccc1S(=O)(=O)N2CC(=O)N1CCC(C)CC1
 : -15%	-13%
CCOc1ccc(CC(=O)N/N=C(\C)c2cccnc2)cc1OCC
 : -15%	-9%
Cc1oc2ncn(CC(C)C)c(=O)c2c1C(=O)Nc1ccc(Cl)cn1
 : 0%	-12%
COc1ccc(OC)c(-c2ccnc(-n3ncc(C(=O)N(C)CCO)c3C3CC3)n2)c1
 : -7%	-6%
COc1ccc(NC(=O)CN(C)C(=O)Cc2ccc(S(=O)(=O)N3CCOCC3)s2)cc1
 : -4%	-11%
Cc1ccc(Nc2nc(NCc3ccco3)c3ccccc3n2)cc1
 : 11µM*	?
NNC(=O)c1ccc(N2CCCCCC2)c([N+](=O)[O-])c1
 : -23%	-6%
CCCCn1cnc2cc(NCc3ccncc3)ccc21
 : -10%	-8%
CCOC(=O)NC(=O)C(/C=N/c1sccc1C(=O)OC)=C(\C)O
 : 4%	4%
COc1ccccc1N1CCN(C(=O)C2CCN(C(=O)c3ccccc3C)CC2)CC1
 : -11%	i
CC(=O)c1ccc(N2CCN(C(=O)COc3ccccc3F)CC2)c(F)c1
 : -15%	-4%
COc1cccc(-c2nnc(SC(C(=O)c3c[nH]c4ccccc34)c3ccccc3)n2C)c1 (stereo not given)
 : 1%	i

Random excerpt: three entries already listed, in no set order.
Values in the order: VACV Venus inh	VACV mCherry inh
O=C1CCCC2=C1C(c1ccc(Cl)cc1)C1C(=O)c3ccccc3C1=N2 (stereo not given)
 : ?	?
CCCCOC(=O)c1ccc(NC(C)=O)cc1
 : 7%	nt
CCn1c(N)c(Br)c(=O)[nH]c1=O
 : -7%	i

The listing continues.
Values in the order: VACV Venus inh	VACV mCherry inh
CC(C)CNC(=O)COC(=O)/C=C/c1ccco1
 : -4%	0%
COc1ccc(-c2csc(NC3CCCCC3)n2)c(OC)c1
 : -2%	?
CC[C@@H](C)[C@@H]1CN([C@@H](CN2CCC[C@H]2CN2C(N)=NC[C@@H]2Cc2ccccc2)C(C)C)C(=N)N1CCCC1CCCC1
 : -6%	i
CCN(CC)CCCNC(=O)C(C)n1c2ccccc2c2nc(=O)cc(C)n21 (stereo not given)
 : -10%[7.34 µM]	-7%[7.34 µM]
CC1(C)CC(=O)C(C(c2ccc3c(c2)OCO3)C2C(=O)CC(C)(C)CC2=O)C(=O)C1
 : 12%	9%
Cc1ccc(CNC(=S)Nc2cc(C(=O)O)ccc2C)cc1
 : 3%	i
CCn1c(O)c(N=Nc2ccc(Cl)c(C(=O)O)c2)c2ccccc21
 : 3%	-5%
COc1cccc(C(=O)Oc2ccc(/C=N/Nc3ccc(C(=O)O)cc3)cc2OC)c1
 : -12%	-26%
CC(C)CC(=O)NC(=S)NNC(=O)c1ccc([N+](=O)[O-])cc1
 : ?	-27%
CSc1nnc(C)c(=O)n1COC(=O)c1ccc(S(=O)(=O)N2CCCC2)cc1
 : -7%	-9%
O=C1CCC(C(=O)OCC(=O)Nc2ccc(OC(F)F)cc2)=NN1
 : -14%	i
COc1ccc(C2=NNC(c3cccnc3)=Nc3ccc(OC)cc32)cc1
 : -6%	-15%
COCc1cc(C)nc2sc(C(=O)Nc3nccs3)c(N)c12
 : ?	?
COc1ccc(-c2nc3cc(C)c(Br)c(C)n3c2Cc2ccccc2)cc1OC
 : 2%	4%

Screening data: PubChem BioAssay, National Center for Advancing Translational Sciences (NCATS)
